Ecoli rRNA inh: inhibits bacterial ribosomal RNA function over humanized ribosomes | E. coli WT GFP vs humanized-ribosome RFP mutants, fluorescence, 24 h; stronger effect = lower value; DMSO median 0, no signal -100 | GFP signal change (wild-type ribosome), % (concentration not given with the values) | AID 720706 | hit rate 1.6% among 350,000;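 active = significant combined selectivity score with lowered wild-type GFP, culture density cut under 30%, mutant RFP and density less affected; inactive = any of these conditions unmet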; also: one replicate is shown; some compounds called inactive have numbers as strong as hits
FGF22 binding: FGF22 (human) thermal shift binding | Q9HCT0 | recombinant FGF22 thermal shift, SYPRO orange fluorescence; percent of sucrose octasulfate shift, DMSO zero | calls only at 9.99 µM | hit rate 1.5% among 340,000 | AID 651658;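 active = melting point raised past a set limit in the mean and every replicate; three in four hits are not shown here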
Target sequence (Q9HCT0 whole entry, looked up): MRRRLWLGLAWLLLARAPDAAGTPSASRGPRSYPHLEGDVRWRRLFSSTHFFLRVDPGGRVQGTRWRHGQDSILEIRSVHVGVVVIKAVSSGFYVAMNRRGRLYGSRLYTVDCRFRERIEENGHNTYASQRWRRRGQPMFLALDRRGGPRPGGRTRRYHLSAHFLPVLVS
Ecoli rRNA inh OD600: second read-out of Ecoli rRNA inh, no call of its own (marks repeat the call); OD600 change, %; measured here: OD600 growth;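 optical density of the mix in the first replicate; 0 = DMSO median and -100 = no signal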
Ecoli rRNA inh RFP: also measured in Ecoli rRNA inh; calls as there; RFP signal change, %; measured here: RFP humanized mutant strains;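 first replicate; 0 = DMSO median and -100 = no signal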
Active calls of the source: *; i = inactive; & = joins results of further samples. An excerpt; count on the stated rates, not on these rows.

Structure | Ecoli rRNA inh | Ecoli rRNA inh OD600 | Ecoli rRNA inh RFP | FGF22 binding
O=C(Nc1cc(S(=O)(=O)N2CCOCC2)ccc1N1CCCC1)c1ccccc1C(F)(F)F | -5 | -5 | -1.3 | i
COC(=O)[C@]12C[C@H](CC(=O)N3CCN(C(=O)C4CC4)CC3)C(=O)N(Cc3ccc4c(c3)OCO4)C1=C[C@H](C(C)(C)C)O[C@@H]2C | -12 | -15 | -1.5 | i
C[C@H](CO)N1C[C@H](C)[C@@H](CN(C)Cc2cccc(F)c2)Oc2cc(-c3ccccc3)ccc2S1(=O)=O | 6 | 4 | -1.2 | i
O=C(C[C@H]1C[C@@H]2c3cc(NC(=O)Nc4ccccc4F)ccc3O[C@@H]2[C@H](CO)O1)NCc1ccc2c(c1)OCO2 | 0 | -9 | -2.7 | i
CCCNC(=O)C[C@H]1CC[C@@H]2[C@@H](COc3ccc(NC(=O)c4cccc(Cl)c4)cc3C(=O)N2C)O1 | -6 | -9 | 3.7 | i
C[C@H](CO)N1C[C@H](C)[C@@H](CN(C)C(=O)Nc2cccc3ccccc23)Oc2ccc(NC(=O)Cc3cn(C)c4ccccc34)cc2C1=O | 1 | -4 | -1.1 | i
C[C@H](CO)N1C[C@H](C)[C@@H](CN(C)S(=O)(=O)c2ccccc2F)Oc2ncc(C#Cc3ccccc3)cc2C1=O | -8 | -1 | -1.1 | i
COc1cccc(NC(=O)Nc2ccc3c(c2)C(=O)N(C)C[C@@H](OC)[C@@H](C)CN(CC2CC2)[C@@H](C)CO3)c1 | -2 | 0 | -0.1 | i
C[C@H](CO)N1C[C@H](C)[C@H](CN(C)CC2CC2)Oc2ccc(NS(=O)(=O)c3ccc(Cl)cc3)cc2C1=O | -1 | 8 | -2.1 | i
C[C@H]1CNCCN1c1ccc(N2CCS(=O)(=O)CC2)c(C#N)c1 | 12 | 7 | -1.6 | i
CCC(=O)Nc1ccc2c(c1)OC[C@H](C)N(C(=O)COC)C[C@H](C)[C@@H](OC)CN(C)C2=O | 1 | 2 | -2.7 | i
O=C(Cc1ccncc1)N1C[C@@H]2N[C@H](C1)C2c1ccc(/C=C/c2ccccc2)cc1 (stereo partly drawn) | 0&-4 | 2&7 | 0.3&3.4 | i
COc1ccc2c3c(n(C)c2c1)[C@H](CO)N(C(=O)Cc1ccccn1)CC31CN(CC2CC2)C1 | 3 | 5 | -0.5 | i
CNC(=O)C[C@H]1CC[C@H]2[C@@H](COc3ccc(NC(=O)Nc4ccc(C#N)cc4)cc3C(=O)N2C)O1 | -5 | 3 | -0.6 | i
COc1ccc(NC(=O)Nc2ccc3c(c2)CC(=O)N([C@H](C)CO)C[C@H](C)[C@H](CN(C)Cc2ccc4c(c2)OCO4)O3)cc1 | 2 | 2 | 8.6 | i
CCCC#Cc1ccc2c(c1)O[C@H](CN(C)C(=O)C1CCC1)[C@H](C)CN([C@H](C)CO)S2(=O)=O | -6 | -42 | 3.3 | i
C[C@H]1CN([C@@H](C)CO)C(=O)Cc2cc(NC(=O)C3CCCCC3)ccc2O[C@H]1CN(C)S(=O)(=O)c1ccccc1 | 0 | -18 | -2.1 | i
C[C@@H]1CN([C@H](C)CO)C(=O)c2cc(NS(=O)(=O)c3ccccc3)ccc2O[C@@H](C)CCCCO[C@@H]1CN(C)Cc1ccc(C(=O)O)cc1 | 1 | 4 | -0.4 | i
C[C@@H]1CN([C@H](C)CO)C(=O)Cc2cc(NS(=O)(=O)c3cccs3)ccc2O[C@@H]1CN(C)Cc1ccc(C(F)(F)F)cc1 | -2 | 13 | -0.7 | i
C[C@H](CO)N1C[C@H](C)[C@@H](CN(C)C(=O)Cc2ccncc2)Oc2cc(C#CC3CCCCC3)ccc2S1(=O)=O | -2 | -26 | 24 | i
COc1ccc(NC(=O)N2C[C@H](O)COC[C@@H]3O[C@@H](CC(=O)N4CCN(C)CC4)CC[C@H]32)cc1 | 4 | 7 | -2.3 | i
COc1ccc(S(=O)(=O)N(C)C[C@H]2Oc3c(NC(=O)Nc4cccc5ccccc45)cccc3C(=O)N([C@@H](C)CO)C[C@H]2C)cc1 | -3 | -3 | -2.8 | i
C[C@@H]1CN([C@H](C)CO)S(=O)(=O)c2ccc(C#CC(C)(C)O)cc2O[C@H]1CN(C)Cc1ccccc1 | -9 | -38 | 14 | i
Cc1noc(C)c1NC(=O)Nc1ccc2c(c1)CC(=O)N([C@H](C)CO)C[C@H](C)[C@H](CN(C)CC1CCCCC1)O2 | 3 | 4 | 14 | i
Cn1cnc(CCNC(=O)C[C@H]2CC[C@H]3[C@@H](COC[C@H](O)CN3C(=O)C3CC3)O2)c1 | 1 | 3 | -9.5 | i
CCN(C[C@@H]1N[C@H](CO)[C@H]1c1ccc(C2=CCCC2)cc1)C(=O)c1ccncc1 | 1 | -4 | 1.5 | i
C[C@H]1CCCCO[C@@H](CN(C)C)[C@@H](C)CN([C@@H](C)CO)C(=O)c2cc(NC(=O)c3ccccc3)ccc2O1 | 0 | 1 | -0.7 | i
CO[C@H]1CN(C)C(=O)c2ccc(NC(C)=O)cc2OC[C@H](C)N(Cc2ccccc2C(=O)O)C[C@H]1C | 1 | 2 | 1.2 | i
O=C(C[C@@H]1C=C[C@@H](NC(=O)C2CCC2)[C@@H](CO)O1)Nc1nccs1 | 1 | -1 | -2.3 | i
O=C(C[C@@H]1C[C@H]2c3cc(NC(=O)Nc4ccccc4)ccc3O[C@H]2[C@@H](CO)O1)NC1CCCC1 | 12 | 10 | 5.4 | i
COCC(=O)N[C@@H]1CC[C@@H](CC(=O)NCc2ccc(Cl)cc2)O[C@@H]1CO | 4 | 9 | -3.2 | i
Cc1noc(C)c1S(=O)(=O)Nc1cccc2c1O[C@H](CN(C)CC1CCCCC1)[C@H](C)CN([C@@H](C)CO)C2=O | 2 | -4 | -2.7 | i
Cc1cccc(S(=O)(=O)N2CC[C@H]3[C@@H](CO)N(C)c4ccc(Br)cc4[C@H]32)c1 | -23 | -41 | 2.1 | i
CC(C)NC(=O)N(C)C[C@H]1Oc2ccc(NC(=O)Nc3cccc4ccccc34)cc2C(=O)N([C@H](C)CO)C[C@@H]1C | -3 | -2 | -3.5 | i
C[C@@H]1CN([C@@H](C)CO)C(=O)c2cc(N(C)C)ccc2O[C@@H]1CN(C)Cc1ccc(Cl)c(Cl)c1 | -9 | -25 | 8.9 | i
COc1ccc(C#Cc2ccc([C@H]3[C@@H](CO)N4CCCCN(Cc5ccncc5)C[C@H]34)cc2)cc1 | -60 | -75 | -10 | i
CCNC(=O)C[C@H]1C=C[C@@H](NS(=O)(=O)c2ccc(C)cc2)[C@@H](CO)O1 | -2 | 5 | -1.0 | i
O=C(C[C@H]1CC[C@H](NC(=O)Nc2cc(F)ccc2F)[C@@H](CO)O1)NCCCN1CCOCC1 | 3 | 17 | -1.6 | i
COc1ccc2c3c([nH]c2c1)[C@@H](CO)N(C(=O)Nc1ccc(F)cc1)CC31CCN(C(=O)Nc2ccccc2)CC1 | -3 | -12 | 1.0 | i
C[C@@H]1CN([C@@H](C)CO)C(=O)c2cccc(NC(=O)c3nc4ccccc4s3)c2O[C@@H]1CN(C)S(=O)(=O)c1ccccc1 | -1 | 5 | 1.5 | i

Ordered by SMILES length (lowest first): five of the compounds above
Structure | Ecoli rRNA inh | Ecoli rRNA inh OD600 | Ecoli rRNA inh RFP | FGF22 binding
CO[C@H]1CN(C)C(=O)c2ccc(NC(C)=O)cc2OC[C@H](C)N(Cc2ccccc2C(=O)O)C[C@H]1C | 1 | 2 | 1.2 | i
O=C(C[C@@H]1C[C@H]2c3cc(NC(=O)Nc4ccccc4)ccc3O[C@H]2[C@@H](CO)O1)NC1CCCC1 | 12 | 10 | 5.4 | i
COc1ccc(NC(=O)N2C[C@H](O)COC[C@@H]3O[C@@H](CC(=O)N4CCN(C)CC4)CC[C@H]32)cc1 | 4 | 7 | -2.3 | i
Cc1noc(C)c1S(=O)(=O)Nc1cccc2c1O[C@H](CN(C)CC1CCCCC1)[C@H](C)CN([C@@H](C)CO)C2=O | 2 | -4 | -2.7 | i
C[C@H]1CCCCO[C@@H](CN(C)C)[C@@H](C)CN([C@@H](C)CO)C(=O)c2cc(NC(=O)c3ccccc3)ccc2O1 | 0 | 1 | -0.7 | i

Next part.
Structure,Ecoli rRNA inh,Ecoli rRNA inh OD600,Ecoli rRNA inh RFP,FGF22 binding
COc1ccc(-c2ccc(C3[C@@H]4CN(C(=O)c5cnccn5)C[C@H]3N4)cc2)cc1 (stereo partly drawn),2,-1,-4.5,i
COCC(=O)Nc1ccc2c(c1)C(=O)N(C)C[C@H](OC)[C@H](C)CN(C(=O)COC)[C@@H](C)CO2,2,-4,0.8,i
COc1ccc2c3c([nH]c2c1)[C@@H](CO)N(C(=O)CN1CCOCC1)CC31CCN(C)CC1,2,8,0.7,i
C[C@@H]1CN([C@H](C)CO)C(=O)c2cc(NS(=O)(=O)c3ccccc3)ccc2O[C@@H]1CN(C)S(=O)(=O)c1ccccc1,-11,-13,-0.8,i
COc1cccc(NC(=O)N2C[C@H](O)COC[C@H]3O[C@@H](CC(=O)NC4CCC4)CC[C@@H]32)c1,2,5,-2.6,i
C[C@H](CO)N1C[C@H](C)[C@H](CN(C)Cc2ccc3c(c2)OCO3)Oc2c(NC(=O)c3ccncc3)cccc2C1=O,2,1,0.1,i
COc1ccccc1-c1ccc2c(c1)[C@H]1[C@H](CCN1S(=O)(=O)c1cn(C)cn1)[C@@H](CO)N2,1,0,-0.1,i
COc1ccc(NC(=O)Nc2ccc3c(c2)C(=O)N([C@H](C)CO)C[C@H](C)[C@@H](CN(C)C(=O)Nc2ccc(C(F)(F)F)cc2)OCCCC[C@H](C)O3)cc1,0,11,3.4,i
CCC(=O)N(C)C[C@@H]1Oc2cc(-c3ccccc3)ccc2S(=O)(=O)N([C@@H](C)CO)C[C@@H]1C,-8,-10,2.7,i
COc1ccc(CN(C)C[C@H]2Oc3c(NS(=O)(=O)c4cccs4)cccc3C(=O)N([C@@H](C)CO)C[C@H]2C)cc1,4,-6,-0.8,i
CC(C)NC(=O)N(C)C[C@@H]1Oc2cc(-c3ccccc3F)ccc2S(=O)(=O)N([C@H](C)CO)C[C@H]1C,-3,-3,-0.9,i
O=C(Nc1ccc2c(c1)OCO2)N[C@H]1CC[C@H](CCNC(=O)C2CCCCC2)O[C@H]1CO,1,-3,-1.7,i
CO[C@@H]1CN(C)C(=O)c2cc(NC(=O)C3CC3)ccc2OC[C@@H](C)N(C(=O)c2ccncc2)C[C@H]1C,1,-4,-1.3,i
COc1ccccc1NC(=O)N[C@H]1C=C[C@H](CC(=O)NCc2ccc(Cl)c(Cl)c2)O[C@@H]1CO,-7,-2,-0.6,i
O=C(O)C[C@H]1CC[C@H](NC(=O)Nc2ccccc2)[C@H](CO)O1,3,5,-2.3,i
O=C(C1CCCC1)N1CC2(C1)[C@H](c1ccccc1)[C@H](CO)N2CC1CC1,-3,-5,-0.1,i
C[C@@H]1CCCCO[C@H](CN(C)S(=O)(=O)c2ccccc2)[C@@H](C)CN([C@@H](C)CO)C(=O)c2cc(NC(=O)Nc3ccc4c(c3)OCO4)ccc2O1,-2,4,0.2,i
CC=Cc1ccc2n(c1=O)C[C@@H]1[C@@H](CO)[C@H](C(=O)N3CCOCC3)[C@H]2N1CC1CCCC1 (mixture of isomers),1,15,0.1,i
CNC[C@H]1Oc2ccc(NC(=O)CCC(F)(F)F)cc2C(=O)N([C@H](C)CO)C[C@H]1C,2,-1,-1.3,i
COC(=O)[C@]12C[C@H](CC(=O)N3CCSCC3)C(=O)N(Cc3ccc4c(c3)OCO4)C1=C[C@H](C(C)(C)C)O[C@@H]2C,16,5,4.2,i
O=C(O)C[C@H]1C=C[C@@H](NC(=O)Nc2ccccc2)[C@@H](CO)O1,4,7,-0.8,i
C[C@H](CO)N1C[C@H](C)[C@H](CN(C)Cc2ccc(Cl)c(Cl)c2)OCCCC[C@H](C)Oc2ccc(NC(=O)c3ccccc3)cc2C1=O,-2,-5,1.9,i
O=C(C[C@H]1CC[C@H]2[C@@H](COC[C@@H](O)CN2C(=O)c2ccc(F)cc2)O1)Nc1ccc(-c2ccccc2)cc1,-7,-42,-1.6,i
COCC(=O)NC[C@@H]1N[C@@H](CO)[C@H]1c1ccc(-c2ccccc2F)cc1,-1,1,-2.3,i
Cc1cccc(S(=O)(=O)N2CCCCN3[C@H](CO)[C@@H](c4ccc(-c5cccnc5)cc4)[C@@H]3C2)c1,-13,-54,-0.1,i
C[C@@H]1CN([C@H](C)CO)C(=O)c2cccc(NS(=O)(=O)c3ccc(F)cc3)c2O[C@H]1CN(C)S(=O)(=O)c1ccccc1,-2,-2,1.5,i
C[C@H](CO)N1C[C@H](C)[C@@H](CN(C)C(=O)Nc2ccc(-c3cccs3)cc2)OCc2cnnn2CCCC1=O,-3,-10,0.7,i
CN1C(=O)c2cc(NC(=O)Nc3ccc(Cl)cc3)ccc2OC[C@H]2O[C@H](CC(=O)NCCN3CCCCC3)CC[C@@H]21,-5,-6,-3.3,i
CCCC#Cc1ccc2c(c1)O[C@@H](CN(C)C(=O)NC(C)C)[C@H](C)CN([C@@H](C)CO)S2(=O)=O,-4,-10,1.9,i
COCC(=O)Nc1ccc2c(c1)[C@H]1C[C@@H](CC(=O)OC)O[C@@H](CO)[C@H]1O2,0,-4,-2.5,i
COc1ccc(NC(=O)N(C)C[C@@H]2Oc3ncc(C#CCN(C)C)cc3C(=O)N([C@H](C)CO)C[C@H]2C)cc1,-1,4,0.8,i

Source: PubChem
